Screening results: PubChem BioAssay, Broad Institute
Yeast UUG start = yeast start codon fidelity modulation; S. cerevisiae UUG-firefly luciferase reporter, luminescence/redox ratio; activity score, % at 18.7 µM; 0.13% of 350,000 active; AID 602363;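 active = replicate mean at a twofold rise or more, about +100% in these data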;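 note: firefly luciferase made from a UUG start codon reports start codon fidelity; reporter light over untreated wells divided by growth signal over untreated wells; some hits fall short of that in this replicate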
HIV Env fusion = inhibitors of HIV Env-mediated cell fusion | HeLa-JRFL Env/CEM21 cell fusion, luciferase | inhibition, % at 12.3 µM | 1.1% of 360,000 active | AID 651610;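 active = mean replicate inhibition score of at least 50 and every replicate individually at or above 50; inconclusive = only one of the two criteria met; inactive = mean below 50 and not all replicates reaching 50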;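 note: 0% = plate neutral controls and 100% = maraviroc near 300 nM; one replicate is shown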
Active calls of the source: *; u = inconclusive; & = joins results of further samples; [ ] = dose if it differs, or a comment.

SMILES	Yeast UUG start	HIV Env fusion
C[C@@H]1CN([C@H](C)CO)C(=O)c2cc(NS(=O)(=O)c3ccc(F)cc3)ccc2O[C@@H]1CN(C)Cc1ccc(Oc2ccccc2)cc1	22	9[16.7 µM]
C[C@H](CO)N1C[C@H](C)[C@@H](CN(C)C(=O)Cc2ccccc2)OCCCC[C@H](C)Oc2ccc(NC(=O)C3CCCCC3)cc2C1=O	10	10[16.7 µM]
COc1ccc(S(=O)(=O)N[C@@H]2CC[C@H](CCn3cc(-c4cccc(F)c4)nn3)O[C@@H]2CO)cc1	7	6[16.7 µM]
Cc1noc(C)c1S(=O)(=O)Nc1ccc2c(c1)CC(=O)N([C@@H](C)CO)C[C@H](C)[C@H](CN(C)S(=O)(=O)c1ccc(Cl)cc1)O2	8	-8[16.7 µM]
C[C@H]1CN([C@@H](C)CO)S(=O)(=O)c2ccc(-c3ccncc3)cc2O[C@@H]1CN(C)S(C)(=O)=O	-18	-38[16.7 µM]
COc1ccc(S(=O)(=O)Nc2ccc3c(c2)C(=O)N([C@@H](C)CO)C[C@@H](C)[C@H](CN(C)C(=O)Nc2ccc(C(F)(F)F)cc2)OCCCC[C@H](C)O3)cc1	-13	15[16.7 µM]
C[C@H]1CN([C@@H](C)CO)C(=O)c2cc(NS(=O)(=O)c3ccccc3)ccc2O[C@@H]1CN(C)C(=O)Nc1ccc2c(c1)OCO2	15	-25[16.7 µM]
CNC[C@H]1OCCCC[C@H](C)Oc2ccc(NS(C)(=O)=O)cc2C(=O)N([C@H](C)CO)C[C@@H]1C	12	-3[16.7 µM]
Cc1noc(C)c1NC(=O)Nc1ccc2c(c1)C(=O)N([C@@H](C)CO)C[C@@H](C)[C@H](CN(C)Cc1ccccc1)O2	-4	-20[16.7 µM]
O=C(NCC[C@H]1CC[C@H](NC(=O)c2cccnc2)[C@H](CO)O1)Nc1ccc(Cl)cc1	-11	-16[16.7 µM]
Cc1noc(C)c1S(=O)(=O)Nc1ccc2c(c1)CC(=O)N([C@@H](C)CO)C[C@H](C)[C@@H](CN(C)S(=O)(=O)c1cccs1)O2	5	-8[16.7 µM]
C[C@@H]1CN([C@H](C)CO)C(=O)c2cc(-c3ccc(C#N)cc3)cnc2O[C@H]1CN(C)C(=O)CC1CC1	2	3[16.7 µM]
CCNC(=O)C[C@@H]1CC[C@H]2[C@@H](COc3ccc(NC(=O)c4ccc(C(F)(F)F)cc4)cc3C(=O)N2C)O1	5	-7[16.7 µM]
O=C1C[C@@](C(=O)NCCN2CCOCC2)(c2ccc([N+](=O)[O-])cc2)[C@@H](c2ccc(CO)cc2)N1CC12CC3CC(CC(C3)C1)C2	15	7[16.7 µM]
C[C@@H]1CCCCO[C@@H](CN(C)Cc2ccc(Cl)c(Cl)c2)[C@H](C)CN([C@@H](C)CO)C(=O)c2cc(NS(=O)(=O)c3cccs3)ccc2O1	22	21[16.7 µM]
C[C@H](O)C#Cc1cnc2c(c1)C(=O)N([C@H](C)CO)C[C@@H](C)[C@@H](CN(C)C(=O)CN(C)C)O2	2	-5[16.7 µM]
CC(C)NC(=O)N1[C@@H](C#N)[C@H](c2ccc(C#CC3CC3)cc2)[C@@H]1CO	14	-5[16.7 µM]
COc1ccc(-c2ccc([C@@H]3[C@@H](CO)N(C(=O)C4CCCC4)[C@H]3C#N)cc2)cc1	19	6[16.7 µM]
COCC#Cc1ccc2c(c1)O[C@H](CN(C)C(=O)C1CC1)[C@@H](C)CN([C@@H](C)CO)S2(=O)=O	2	0[16.7 µM]
COc1ccc(S(=O)(=O)Nc2ccc3c(c2)CC(=O)N([C@H](C)CO)C[C@@H](C)[C@H](CN(C)C(=O)Nc2ccc4c(c2)OCO4)O3)cc1	28	6[16.7 µM]
Cc1ccc(S(=O)(=O)N(C)C[C@@H]2Oc3c(NS(=O)(=O)c4ccc(Cl)cc4)cccc3C(=O)N([C@H](C)CO)C[C@H]2C)cc1	-5	-6[16.7 µM]
Cc1ccc(S(=O)(=O)N(C)C[C@@H]2Oc3c(cccc3N(C)C)C(=O)N([C@H](C)CO)C[C@@H]2C)cc1	0	12[16.7 µM]
COc1ccc(S(=O)(=O)Nc2ccc3c(c2)C(=O)N([C@H](C)CO)C[C@H](C)[C@H](CN(C)C(=O)c2ccccc2)OCCCC[C@H](C)O3)cc1	18	-145[16.7 µM]
C[C@@H]1CCCCO[C@@H](CN(C)C(=O)NC2CCCCC2)[C@H](C)CN([C@@H](C)CO)C(=O)c2cc(NC(=O)CCC(F)(F)F)ccc2O1	-6	-13[16.7 µM]
COCC#Cc1cnc2c(c1)C(=O)N([C@@H](C)CO)C[C@@H](C)[C@H](CN(C)C(=O)NC1CCCC1)O2	-10	u
C[C@H]1CN([C@@H](C)CO)C(=O)CCCn2cc(nn2)CO[C@H]1CN(C)Cc1ccc(C(=O)Nc2ccccc2N)cc1	5	-12[16.7 µM]
C[C@@H]1CCCCO[C@@H](CN(C)C(=O)c2ccccc2)[C@@H](C)CN([C@@H](C)CO)C(=O)c2cc(NC(=O)C3CCCCC3)ccc2O1	7	0[16.7 µM]
C[C@H](CO)N1C[C@H](C)[C@H](CN(C)CC2CCCCC2)OCCCC[C@H](C)Oc2ccc(NC(=O)CCCCCC(=O)Nc3ccccc3N)cc2C1=O	-4	7[16.7 µM]
O=C(C[C@@H]1CC[C@H](NC(=O)NC2CCCCC2)[C@@H](CO)O1)NCc1ccc(Cl)cc1	11	17[16.7 µM]
Cc1ccc(S(=O)(=O)Nc2ccc3c(c2)C(=O)N([C@@H](C)CO)C[C@H](C)[C@H](CN(C)C(=O)c2ccncc2)OCCCC[C@H](C)O3)cc1	8	5[16.7 µM]
C[C@@H]1CCCCO[C@@H](CN(C)C(=O)CCC(F)(F)F)[C@H](C)CN([C@@H](C)CO)C(=O)c2cc(N(C)C)ccc2O1	-4	-7[16.7 µM]
CC(C)NC(=O)N(C)C[C@H]1Oc2c(NS(C)(=O)=O)cccc2C(=O)N([C@H](C)CO)C[C@@H]1C	-7&-4	-22&18[16.7 µM]
C[C@H](CO)N1C[C@H](C)[C@H](CN(C)C(=O)Cc2ccccn2)Oc2ncc(C#C[C@@H](C)O)cc2C1=O	-4	-5[16.7 µM]
CCC(=O)N(C)C[C@H]1Oc2ncc(C3=CCCC3)cc2C(=O)N([C@H](C)CO)C[C@H]1C	27	8[16.7 µM]
C[C@@H]1CN([C@H](C)CO)C(=O)c2cccc(N(C)C)c2O[C@@H]1CN(C)S(=O)(=O)c1cn(C)cn1	-16	0[16.7 µM]
COc1cccc(NC(=O)Nc2ccc3c(c2)C(=O)N(C)C[C@@H](OC)[C@@H](C)CN[C@H](C)CO3)c1	-5	-13[16.7 µM]
C[C@@H]1CN([C@@H](C)CO)C(=O)Cc2cc(NC(=O)Nc3ccc(C(F)(F)F)cc3)ccc2O[C@@H]1CN(C)C(=O)NC1CCCCC1	-2	9[16.7 µM]
O=C(C[C@H]1C[C@H]2c3cc(NC(=O)C4CCOCC4)ccc3O[C@H]2[C@H](CO)O1)NCc1ccccc1F	-15	13[16.7 µM]
C[C@H](CO)N1C[C@H](C)[C@@H](CN(C)S(=O)(=O)c2ccccc2)Oc2ncc(Br)cc2C1=O	12	30[16.7 µM]
COc1ccc(NC(=O)N(C)C[C@@H]2OCCCC[C@@H](C)Oc3ccc(NC(=O)Nc4ccc(C(F)(F)F)cc4)cc3C(=O)N([C@H](C)CO)C[C@H]2C)cc1	-5	-3[16.7 µM]

A run of entries from the list above:
SMILES	Yeast UUG start	HIV Env fusion
C[C@@H]1CCCCO[C@@H](CN(C)C(=O)CCC(F)(F)F)[C@H](C)CN([C@@H](C)CO)C(=O)c2cc(N(C)C)ccc2O1	-4	-7[16.7 µM]
CC(C)NC(=O)N(C)C[C@H]1Oc2c(NS(C)(=O)=O)cccc2C(=O)N([C@H](C)CO)C[C@@H]1C	-7&-4	-22&18[16.7 µM]
C[C@H](CO)N1C[C@H](C)[C@H](CN(C)C(=O)Cc2ccccn2)Oc2ncc(C#C[C@@H](C)O)cc2C1=O	-4	-5[16.7 µM]
CCC(=O)N(C)C[C@H]1Oc2ncc(C3=CCCC3)cc2C(=O)N([C@H](C)CO)C[C@H]1C	27	8[16.7 µM]
C[C@@H]1CN([C@H](C)CO)C(=O)c2cccc(N(C)C)c2O[C@@H]1CN(C)S(=O)(=O)c1cn(C)cn1	-16	0[16.7 µM]
COc1cccc(NC(=O)Nc2ccc3c(c2)C(=O)N(C)C[C@@H](OC)[C@@H](C)CN[C@H](C)CO3)c1	-5	-13[16.7 µM]
C[C@@H]1CN([C@@H](C)CO)C(=O)Cc2cc(NC(=O)Nc3ccc(C(F)(F)F)cc3)ccc2O[C@@H]1CN(C)C(=O)NC1CCCCC1	-2	9[16.7 µM]
O=C(C[C@H]1C[C@H]2c3cc(NC(=O)C4CCOCC4)ccc3O[C@H]2[C@H](CO)O1)NCc1ccccc1F	-15	13[16.7 µM]
C[C@H](CO)N1C[C@H](C)[C@@H](CN(C)S(=O)(=O)c2ccccc2)Oc2ncc(Br)cc2C1=O	12	30[16.7 µM]
COc1ccc(NC(=O)N(C)C[C@@H]2OCCCC[C@@H](C)Oc3ccc(NC(=O)Nc4ccc(C(F)(F)F)cc4)cc3C(=O)N([C@H](C)CO)C[C@H]2C)cc1	-5	-3[16.7 µM]

Other entries
SMILES	Yeast UUG start	HIV Env fusion
O=C(C[C@@H]1C[C@@H]2c3cc(NS(=O)(=O)c4ccc(F)cc4)ccc3O[C@@H]2[C@@H](CO)O1)NCC1CC1	-2	22[16.7 µM]
COCC(=O)N[C@@H]1CC[C@H](CC(=O)NCc2ccccc2OC)O[C@H]1CO	-33	-14[16.7 µM]
O=C(CCN1CCCCC1)N[C@@H]1CC[C@H](CCn2cc(-c3cccc(F)c3)nn2)O[C@H]1CO	-4	-16[16.7 µM]
C[C@@H]1CN([C@H](C)CO)C(=O)c2cc(N(C)C)ccc2O[C@@H](C)CCCCO[C@H]1CN(C)Cc1ccccc1	0	-8[16.7 µM]
C/C=C/c1ccc2c(c1)O[C@H](CN(C)Cc1cccnc1)[C@@H](C)CN([C@H](C)CO)S2(=O)=O	-12	16[16.7 µM]
C[C@@H]1CN([C@@H](C)CO)C(=O)c2cccc(NS(=O)(=O)c3ccc(Cl)cc3)c2O[C@H]1CN(C)S(=O)(=O)c1ccc(F)cc1	-8	2[16.7 µM]
C[C@@H]1CN([C@H](C)CO)S(=O)(=O)c2ccc(C#Cc3ccncc3)cc2O[C@H]1CN(C)C(=O)C1CCOCC1	3	10[16.7 µM]
COc1ccc(NC(=O)N(C)C[C@@H]2Oc3cc(-c4ccncc4)ccc3S(=O)(=O)N([C@H](C)CO)C[C@H]2C)cc1	-9	-38[16.7 µM]
CN1CCN(C(=O)C[C@H]2C=C[C@H](NC(=O)Cc3ccccn3)[C@H](CO)O2)CC1	-17	4[16.7 µM]
C[C@H]1CN([C@@H](C)CO)C(=O)Cc2cc(NC(=O)C3CC3)ccc2O[C@@H]1CN(C)S(=O)(=O)c1cn(C)cn1	-2	12[16.7 µM]
Cc1noc(C)c1NC(=O)Nc1ccc2c(c1)C(=O)N([C@H](C)CO)C[C@H](C)[C@@H](CN(C)C(=O)C1CCCCC1)OCCCC[C@@H](C)O2	6	20[16.7 µM]
C[C@@H]1CN([C@H](C)CO)C(=O)c2cc(C#CC3CCCC3)cnc2O[C@H]1CN(C)S(=O)(=O)c1cccc(F)c1	-2	34[16.7 µM]
C[C@@H]1CN([C@@H](C)CO)S(=O)(=O)c2ccc(-c3cccc(C(=O)N(C)C)c3)cc2O[C@H]1CN(C)C(=O)Nc1ccc(F)cc1	11	-60[16.7 µM]
COc1ccc(S(=O)(=O)N(C)C[C@@H]2OCCCC[C@H](C)Oc3ccc(NS(C)(=O)=O)cc3C(=O)N([C@@H](C)CO)C[C@H]2C)cc1	6	11[16.7 µM]
C[C@@H]1CN([C@@H](C)CO)C(=O)c2cc(NC(=O)Nc3ccc(F)cc3)ccc2O[C@@H](C)CCCCO[C@H]1CN(C)C	-9	7[16.7 µM]
C[C@@H]1CN([C@@H](C)CO)C(=O)c2cc(NC(=O)NC3CCCCC3)ccc2O[C@@H]1CN(C)C(=O)Nc1ccc(F)cc1	10	-20[16.7 µM]
CN1C(=O)c2cc(NC(=O)Cc3cccs3)ccc2OC[C@@H]2O[C@H](CC(=O)O)CC[C@@H]21	8	2[16.7 µM]
C[C@H](CO)N1C[C@H](C)[C@H](CN(C)C(=O)CCCN(C)C)OCCCC[C@H](C)Oc2ccc(NC(=O)c3ccncc3)cc2C1=O	-7	-26[16.7 µM]
C[C@H]1CN([C@@H](C)CO)C(=O)c2cc(-c3cccc(C#N)c3)cnc2O[C@H]1CN(C)Cc1ccccc1	2	12[16.7 µM]
C[C@H](CO)N1C[C@H](C)[C@H](CN(C)C(=O)c2ccncc2)Oc2ncc(C3=CCCC3)cc2C1=O	-10	-8[16.7 µM]
Cc1ccc(S(=O)(=O)N[C@H]2CC[C@@H](CCn3cc(C4CCCCC4)nn3)O[C@@H]2CO)cc1	-7	9[16.7 µM]
COCc1cn(CC[C@H]2CC[C@@H](NC(=O)c3ccccc3)[C@@H](CO)O2)nn1	-8	-21[16.7 µM]
O=C(C[C@H]1CC[C@H]2[C@@H](COC[C@@H](O)CN2C(=O)c2ccccc2)O1)Nc1nccs1	-10	-16[16.7 µM]
COc1ccc(S(=O)(=O)Nc2ccc3c(c2)C(=O)N([C@@H](C)CO)C[C@H](C)[C@H](CN(C)S(=O)(=O)c2ccc(C)cc2)O3)cc1	0	-36[16.7 µM]
C[C@@H]1CCCCO[C@@H](CN(C)C(=O)c2ccccc2)[C@H](C)CN([C@H](C)CO)C(=O)c2cc(NC(=O)Nc3cccc4ccccc34)ccc2O1	-2	14[16.7 µM]
O=C(C[C@@H]1C=C[C@H](NS(=O)(=O)c2cccc(F)c2)[C@H](CO)O1)NCc1ccc2c(c1)OCO2	1	-3[16.7 µM]

These rows are one share of the data. The share of hits here may be higher or lower than overall.
